Screening data from PubChem BioAssay.
Cruzain Triton = blocks cruzain activity in presence of Triton detergent; P25779; purified cruzain, Z-FR-AMC fluorescence, 0.01% Triton; Potency, µM, inactives show max response, negative = inhibition, hits mostly inhibitors; hit rate 0.43% among 200,000; active = well fitted curve in the direction sought with a large enough effect; inconclusive = small, poorly fitted or top-dose-only effect, or another doubt; inactive = no such curve, though single readings can be large; an effect the other way counts as inactive or inconclusive;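 also: plate controls were neutral wells for no effect and buffer without enzyme for full effect; nearly all actives have a fitted effect of over 40% in size; top concentration of the series not given in the record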
Target sequence (P25779 123-467 limits assumed): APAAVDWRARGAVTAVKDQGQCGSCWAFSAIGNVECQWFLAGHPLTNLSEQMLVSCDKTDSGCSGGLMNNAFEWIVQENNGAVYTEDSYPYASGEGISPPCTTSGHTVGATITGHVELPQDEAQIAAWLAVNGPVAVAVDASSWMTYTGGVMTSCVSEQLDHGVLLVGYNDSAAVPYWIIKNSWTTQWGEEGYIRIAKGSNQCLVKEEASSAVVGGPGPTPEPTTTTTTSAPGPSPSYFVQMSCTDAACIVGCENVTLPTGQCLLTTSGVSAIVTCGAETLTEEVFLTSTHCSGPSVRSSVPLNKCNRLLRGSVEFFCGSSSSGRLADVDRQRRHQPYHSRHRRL
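Steps: dispense cruzain (1.5 nM final) in acetate buffer pH 5.5 with DTT and 0.01% Triton X-100; pin-transfer compounds; incubate 15 min RT; add Z-FR-AMC (2 uM final); read fluorescence every 30 s, using the 60 s intensity change.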
Cruzain inh noDet = cruzain (T. cruzi) inhibition without detergent; hit rate 2.3% among 200,000; AID 1476; purified cruzain, Z-FR-AMC fluorescence, no detergent; Potency, µM, inactives show max response, negative = inhibition, actives largely listed as inhibitors; P25779; active = well fitted curve in the direction sought with a large enough effect; inconclusive = small, poorly fitted or top-dose-only effect, or another doubt; inactive = no such curve, though single readings can be large; an effect the other way counts as inactive or inconclusive;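 also: plate controls were enzyme without inhibitor for no effect and buffer without enzyme for full effect; nearly all actives have a fitted effect of over 40% in size; top concentration of the series not given in the record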
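Purified cruzain at 1.5 nM, pre-incubated 15 min with compound at room temperature in 100 mM sodium acetate pH 5.5, 5 mM DTT, 0.00005% Triton X-100. Reaction started with 2 uM Z-FR-AMC; AMC fluorescence increase over 60 s gives rate.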
SARS PLP yeast = blocks SARS-CoV papain-like protease in a yeast assay | S. cerevisiae expressing SARS-CoV PLpro, growth rescue; control for the full effect not named in the record | hit rate 0.19% among 330,000 | Potency, µM (doses to about 32.9 µM), for the others: at the highest dose activity, positive = growth rescue; also: 0% is about no effect; nearly all actives have a fitted effect of over 55% in size; growth read by luminescence after 48 h
Marburg entry inh = Marburg virus entry inhibition; Marburg virus pseudotyped entry inhibition, cell reporter; control for the full effect not named in the record; about a third of the inactives were read at about 46 µM; Potency, µM (doses to about 37.8 µM), inactives show at the highest dose activity change, negative = inhibition, usual class: inhibitors; hit rate 1.8% among 300,000; AID 540276; active = well fitted inhibition curve with a large enough effect; inconclusive = small, poorly fitted or top-dose-only effect, or effect the other way; inactive = flat fitted curve, though single readings scatter; tested in HEK293 cells; about a fifth of its hits are not listed in these tables; also: % is scaled to controls: 0 for no effect and ±100 for the full control effect; luciferase read-out
NS1 function inh = influenza NS1 inhibition; AID 2326; S. cerevisiae slowed by influenza A NS1, growth recovery by OD600; hit rate 0.4% among 270,000; Potency, µM (series often up to 46.1 µM), for inactives: at the top dose activity, positive = more growth; also: actives are rising curves; nearly all actives have a fitted effect of over 50% in size
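S. cerevisiae expressing influenza A NS1, grown in glucose, washed, then diluted 1:100 into pH 6.0 -URA galactose medium with 23 nl compound. Growth recovery read as OD600; NS1-free strain serves as control.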
2A StopGo = FMDV 2A StopGo reporter, luciferase signal. human cells with a luciferase reporter of 2A StopGo recoding; control for the full effect not named in the record. hit rate 1.2% among 410,000. AID 1159524. Potency, µM (titrated, usually from 57.9 µM), for inactives: at the highest dose signal change, negative = less light; active = well fitted falling curve with a large enough effect; inconclusive = small, poorly fitted or top-dose-only effect; inactive = no such curve, though single readings can be large or run the other way; tested in HEK293T cells; also: % is scaled to controls: 0 for no effect and ±100 for the full control effect; nearly all actives have a fitted effect of over 45% in size; luciferase light after 4 h
Lassa entry inh = Lassa virus entry inhibition; hit rate 1.2% among 300,000; AID 540256; Lassa virus pseudotype entry inhibition, cell reporter; control for the full effect not named in the record; Potency, µM (titrated, usually from 37.9 µM), without a hit: at the top dose activity change, negative = inhibition, usual class: inhibitors; active means well fitted inhibition curve with a large enough effect; inconclusive means small, poorly fitted or top-dose-only effect, or effect the other way; inactive means flat fitted curve, though single readings scatter; tested in HEK293 cells; also: % is scaled to controls: 0 for no effect and ±100 for the full control effect; nearly all actives have a fitted effect of over 50% in size; luciferase read-out
RE007 growth inh = less growth of the S. pombe RE007 Vpr strain. S. pombe RE007 Vpr strain, BacTiter-Glo ATP luminescence, 24 h; control for the full effect not named in the record. Potency, µM (highest dose often 92.2 µM), for the others: at the highest dose activity change, negative = less growth. hit rate 0.21% among 360,000. AID 651644; active = well fitted falling curve with a large enough effect; inconclusive = small, poorly fitted or top-dose-only effect; inactive = no such curve, though single readings can be large or run the other way;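 also: % is scaled to controls: 0 for no effect and ±100 for the full control effect; nearly all actives have a fitted effect of over 50% in size; the assay follows cell death caused by Vpr and the record does not say whether a fall means rescue or toxicity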
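Fission yeast RE007 carrying one integrated HIV-1 vpr copy, seeded at OD 0.01 in PMG+AL medium with 23 nL pinned compound. Grown 24 h at 30 degrees; viability read by BacTiter-Glo luminescence after 5 min.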
Active calls of the source: *; ? = inconclusive; nt = not tested or not shown; [ ] = dose if it differs, or a comment. Unless noted, calls follow the shape of the dose curve; as a rule, active means well fitted rising curve with a large enough effect; inconclusive means small, poorly fitted or top-dose-only effect; inactive means no such curve, though single readings can be large or run the other way. Potency is read from the fitted curve at half-maximal effect. Outcome played no part in choosing rows, and some 4.5% of all compounds hit somewhere here.

SMILES	Cruzain Triton	Cruzain inh noDet	SARS PLP yeast	Marburg entry inh	NS1 function inh	2A StopGo	Lassa entry inh	RE007 growth inh
CCN(C(=O)N1CCOCC1)c1ccccc1C	nt	nt	-5%	-4%	14%	-1%	12%	7%
CCCCNC(=O)C(=O)NCc1ccncc1	nt	nt	-2%	0%[46.1 µM]	-6%	2%	-6%[46.1 µM]	-7%
O=C(CC1S/C(=N/N=C/c2cccs2)NC1=O)Nc1ccc(Cl)c(Cl)c1 (centres undefined)	-5.0%	20µM*	8%	4%	0%	-10%	?	3%
CCn1ccnc1CNC(=O)C1CCC(=O)N(Cc2ccccc2F)C1 (centres undefined)	nt	nt	-1%	4%	4%	-12%	-1%	7%
COc1cc(-c2nc3ccc4ccccc4c3c3c2CCC3)cc(OC)c1O	-9.2%	?	-104%	?	21%	-21%	?	72%
COc1ccc(-c2cc3nc(C)c(CCC(=O)NC(C)c4ccccc4)c(C)n3n2)c(OC)c1 (centres undefined)	-7.3%	?	nt	?	nt	-10%	-4%[46.1 µM]	nt
COc1ccc(CNC(=O)N2CCN(c3cccc(Cl)c3)CC2)cc1OC	nt	nt	-3%	-25%[46.1 µM]	-19%	?	nt	12%
C=CCN1C(=O)c2ccc(C(=O)N(C)CC(=O)Nc3ccccc3Cl)cc2C1=O	nt	nt	1%	-12%	nt	-1%	1%[46.1 µM]	-12%
NS(=O)(=O)c1ccc(CCNC(=O)CNCCc2ccc(C(F)(F)F)cc2)cc1	nt	nt	0%	nt	-2%	?	nt	-3%
CCOC(=O)C1CCN(C(=O)c2ccccc2NS(=O)(=O)c2ccc(F)cc2)CC1	1.0%	-11%	8%	?	-10%	0%	-3%	13%
N#CC(C#N)=C1C=CC=CN1/C(=C\c1ccco1)C(=O)c1ccc(Br)cc1	-18%	2%	-43%	6.3µM*	6%	10µM*	?	-11%
O=C(NCCS(=O)(=O)NC1CCCC1)c1ccc(F)cc1	nt	nt	-2%	24%[46.1 µM]	nt	-11%	5%	-19%
CCn1c(CNC(=O)c2ccccc2F)nnc1SCC(=O)NC1CCCCC1	nt	nt	0%	nt	-1%	-2%	nt	-6%
NNC(=O)c1snnc1-c1ccccc1	nt	nt	-1%	13%[46.1 µM]	6%	-9%	11%	3%
CC(C)c1ccc(NC(=O)C[n+]2ccn(C3=C([O-])c4ccccc4C3=O)c2)cc1	nt	nt	1%	-6%[46.1 µM]	1%	-11%	-20%[46.1 µM]	-9%
O=S(=O)(/C=C/c1ccccc1)NC1CCCCCC1	nt	nt	-3%	?	-58%	60%[activator]	5%	0%
COc1ccc(N2CC(O)=C(c3nc(-c4ccc(F)cc4)cs3)C2=N)cc1Cl	nt	nt	1%	27%[46.1 µM]	nt	28%	-21%	14%
CC(C)c1nc(SCC(=O)Nc2nccs2)c2ccccc2n1	nt	nt	1%	-11%[46.1 µM]	9%	-28%	-6%	-4%
O=C1C(=O)N(CCCn2ccnc2)C(c2ccc(Br)cc2)/C1=C(\O)c1ccc2c(c1)OCCO2 (centres undefined)	nt	nt	-5%	nt	2%	3%	nt	11%
Cc1ccc(SCCNC(=O)/C=C/c2ccc(Cl)cc2)cc1	0.0%	-9%	-18%	-1%	6%	-15%	4%	-15%
COC(=O)c1sc(NC(=O)C2c3ccccc3Oc3ccccc32)c(C(=O)OC)c1C	-2.5%	10µM*	2%	?	13%	0%	5%	12%
Cc1[nH]c2ccccc2c1C(=O)C(=O)N1CC=C(c2ccccc2)CC1	-6.7%	6%	10%	?	-11%	?	?	-15%
COc1cccc(/C=N/NC(=O)C(=O)Nc2ccccc2OC(F)(F)C(F)F)c1O	-6.4%	2%	3.5µM*	8.9µM*	-19%	-27%	?	-5%
O=C(NC(Cc1ccccc1)c1nc2ccccc2[nH]1)c1cccc([N+](=O)[O-])c1 (centres undefined)	nt	nt	-2%	?	-6%	-22%	?	1%
Cc1ccc(N=Nc2c(=O)[nH]n3c(C)cc(C)nc23)cc1	-12%	-6%	-9%	-3%	-19%	-9%	-6%	-7%
CC1CCN(C(C)C(=O)Nc2ccccc2-c2ccccc2)CC1 (centres undefined)	3.1%	-7%	0%	12µM*	-6%	?	-4%	2%
COc1ccc2cc(C(=O)OC(C)C)sc(=O)c2c1OC	-11%	18%	4%	17%	-9%	28%	?	-11%
COc1ccc(C2(C(=O)N3CCCC3)CCOCC2)cc1OC	7.6%	-9%	7%	28%	-5%	nt	15%	-17%
O=C(N/C(=C\c1ccc([N+](=O)[O-])cc1)C(=O)N1CCCCC1)c1ccccc1Br	-8.4%	-15%	5%	-6%	-20%	21%	-4%	2%
COc1ccc(Cl)cc1-c1nc(SCC(N)=O)n[nH]1	nt	nt	1%	3%[46.1 µM]	3%	-10%	-8%[46.1 µM]	-13%
CN(CC(=O)Nc1ccc([N+](=O)[O-])cc1Br)Cc1c(F)cccc1Cl	nt	nt	-1%	nt	-5%	-4%	nt	4%
CCOC(=O)CC(C(=O)OCC)P(=O)(c1ccccc1)c1ccccc1 (centres undefined)	2.6%	14%	0%	2%	-12%	-2%	18%	-14%
Cc1ccsc1C(=O)OCC(=O)Nc1c(C)n(C)n(-c2ccccc2)c1=O	-0.8%	-2%	-1%	?	15%	-21%	2%	-11%
COc1ccc(S(=O)(=O)N(CC(=O)Nc2ccc(Br)cc2)Cc2ccccc2)cc1	-1.4%	5%	nt	nt	nt	0%	?	nt
O=C(c1c(Cl)cccc1Cl)N1CCN(c2cccc3[nH]ccc23)CC1	nt	nt	0%	-17%[46.1 µM]	5%	6%	25%[46.1 µM]	-15%
CCCCN(C)C1CCN(C(=S)Nc2cccc(OC)c2)CC1	nt	nt	-2%	-28%[46.1 µM]	nt	?	-3%[46.1 µM]	-4%
CCOC(=O)c1c(C)[nH]c(C)c1S(=O)(=O)N1CCCC(C(=O)N2CCN(c3ccc(Cl)cc3)CC2)C1 (centres undefined)	-2.5%	?	nt	nt	nt	-8%	-7%[46.1 µM]	nt
N=C(N)SCc1cn2ccccc2n1	0.2%	-10%	-5%	-6%	15%	-15%	2%	7%
CCn1c(=O)c(C(=O)NCCCc2ccccc2)c(O)c2ccccc21	nt	nt	18%	nt	?	-20%	nt	-11%
CCOC(=O)Cc1csc(NC(=S)NC(=O)c2cc(OC)cc(OC)c2)n1	nt	nt	-1%	nt	0%	-25%	nt	?
NC(=O)c1ccccc1NC(=O)CN1CCOCC1	1.2%	-6%	-3%	-1%	-3%	2%	2%	0%
CCC(O)CNc1nc(-n2nc(C)cc2C)nc2sc3c(c12)CCCC3 (centres undefined)	3.9%	5%	1%	nt	-10%	nt	nt	nt
O=C(O)c1ccc(-n2c(/C=C\c3ccc(O)cc3)nc3ccccc3c2=O)cc1	-13%	10%	nt	nt	nt	-22%	-14%[46.1 µM]	nt
O=C(CN1C(=O)/C(=C\c2cccc(Cl)c2)Sc2ccccc21)NCCCN1CCOCC1	nt	nt	1%	nt	2%	-16%	nt	-9%
O=C(Cc1ccc(Cl)c(Cl)c1)Nc1ccccc1N1CCCC1	nt	nt	-5%	nt	-5%	-3%	nt	-13%
COc1cc(OC)cc(C(=O)N2CCN(S(=O)(=O)c3ccc(Cl)s3)CC2)c1	nt	nt	2%	1%	nt	-6%	0%	4%
O=C(NCCc1ccccc1)c1ccc2c(c1)N(Cc1c(F)cccc1Cl)C(=O)CS2	-1.8%	?	nt	?	nt	-16%	?	nt
Nc1nc(N2CCN(c3ccc(Cl)cc3)CC2)n[nH]1	nt	nt	1%	-4%[46.1 µM]	3%	-13%	1%	3%
O=S1(=O)CCC(NC(=S)N2CCOCC2)C1 (centres undefined)	2.1%	-5%	-1%	-12%	13%	-17%	?	nt
O=c1[nH]c(=O)n(Cc2ccco2)c(O)c1C=NCCN1CCNCC1	nt	nt	0%	-13%	3%	9%	-2%	-15%
CCOC(=O)c1ccc(S(=O)(=O)NC2CC2)cc1	nt	nt	-1%	8%[46.1 µM]	6%	22%	0%	7%
CCOc1ccc(S(=O)(=O)n2nnc3ccccc32)cc1C	2.7%	-1%	7%	22%	-6%	-12%	24%	-7%
CCCCCCCN1C2=NCCN2c2ccccc21	nt	nt	-1%	nt	-9%	-28%	nt	-18%
CCOc1ccc2[nH]c(=O)c(CN(C(=O)N3CCOCC3)C3CC3)cc2c1	-0.2%	7%	4%	0%	5%	nt	nt	nt
CN(C)S(=O)(=O)c1cccc(C(=O)NC2CCSc3ccccc32)c1 (centres undefined)	nt	nt	-1%	18%[46.1 µM]	-4%	18%	2%[46.1 µM]	6%
C/C(=N\NC(=O)Cc1ccc(F)cc1)c1ccc(F)cc1	-1.4%	11%	-9%	?	2%	-3%	1%	6%
COc1ccc(-c2[nH]ncc2CN(C)CCCN2CCOCC2)cc1F	nt	nt	0%	0%[46.1 µM]	4%	1%	3%[46.1 µM]	-23%
CCc1cc(Br)ccc1NC(=O)C1CCCO1 (centres undefined)	0.3%	8%	?	22%	?	-3%	-11%[14.3 µM]	9%
O=C(Nc1ccc(Cl)c(Cl)c1)Nc1cc(S(=O)(=O)N2CCOCC2)ccc1N1CCCC1	-6.5%	?	?	?	11µM*	-16%	?	-2%
Cc1ccc(NCCCCO)cc1C	nt	nt	0%	0%[46.1 µM]	-3%	24%	9%	-21%
COc1ccc(C2CCCN2C(=S)Nc2c(C)cccc2C)cc1OC (centres undefined)	nt	nt	1%	?	nt	-18%	11%[46.1 µM]	-7%
COc1ccc(OC)c(N=Cc2c(O)n(Cc3ccccc3)c(=S)[nH]c2=O)c1	nt	nt	-1%	?	3%	-13%	-9%	5%
CC1CCCCN1C(=O)CCS(=O)(=O)c1cccc2nonc12 (centres undefined)	nt	nt	6%	?	nt	31%[activator]	12%	13%
